Bioassay records: PubChem BioAssay, The Scripps Research Institute Molecular Screening Center
PAFAH1B3 FP inh: PAFAH1B3 enzyme inhibitors, primary screen, biochemical, fluorescence polarization, human. AID 492972, 2010. recombinant PAFAH1B3, FP-rhodamine probe. actives 0.28% (n = 340,000). inhibition, % at 3.39 µM;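 active = inhibition above the screen-wide average of all tested compounds plus 3 SD, cut at about 25% in these data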;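 also: 0% = enzyme with DMSO only and 100% = wells lacking PAFAH1B3 protein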
PAD4 inh: human PAD4 inhibitors, primary screen, biochemical, fluorescence polarization, 1536-well format; inhibition, % at 6.36 µM; recombinant PAD4, RCA probe fluorescence polarization; AID 485272, 2010; actives 0.41% (n = 330,000); Protein-arginine deiminase type-4 (Homo sapiens), Q9UM07;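 active = percent inhibition above a cutoff equal to the mean of all tested compounds plus 3 SD, cut at about 15% in these data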;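 also: 0% = PAD4 with RCA probe and DMSO and 100% = probe without PAD4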
Target sequence (Q9UM07 whole entry, looked up): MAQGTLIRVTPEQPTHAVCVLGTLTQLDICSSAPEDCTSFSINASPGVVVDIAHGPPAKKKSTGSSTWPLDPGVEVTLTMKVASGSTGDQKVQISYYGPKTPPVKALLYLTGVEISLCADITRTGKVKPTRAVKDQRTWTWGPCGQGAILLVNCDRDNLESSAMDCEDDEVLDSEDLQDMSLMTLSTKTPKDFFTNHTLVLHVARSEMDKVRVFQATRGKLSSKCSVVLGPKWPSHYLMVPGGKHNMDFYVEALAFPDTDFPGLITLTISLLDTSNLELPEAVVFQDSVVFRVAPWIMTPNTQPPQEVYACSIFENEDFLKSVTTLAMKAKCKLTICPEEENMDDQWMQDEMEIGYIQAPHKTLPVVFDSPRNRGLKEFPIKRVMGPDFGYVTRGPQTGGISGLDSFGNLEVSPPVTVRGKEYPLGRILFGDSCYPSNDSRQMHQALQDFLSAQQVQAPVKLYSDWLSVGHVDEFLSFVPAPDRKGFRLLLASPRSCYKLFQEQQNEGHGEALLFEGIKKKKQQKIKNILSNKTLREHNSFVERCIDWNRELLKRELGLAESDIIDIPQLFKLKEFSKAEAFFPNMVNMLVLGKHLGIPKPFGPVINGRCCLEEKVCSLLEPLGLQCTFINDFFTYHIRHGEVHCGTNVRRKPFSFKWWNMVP
PREPL inh: PREPL enzyme inhibitors, primary screen, biochemical, fluorescence polarization; Prolyl endopeptidase-like (Homo sapiens), Q4J6C6; recombinant PREPL, fluorescence polarization activity-based probe; inhibition, % at 5.96 µM; actives 0.68% (n = 320,000); AID 2751, 2010; in the data active = inhibition above about 43%;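 also: 0% = enzyme with DMSO and 100% = wells lacking enzyme; many of its hits are not listed in these tables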
GSTO1 counter: inhibitors of recombinant GSTO1, primary screen, counter-screen for RBBP9 inhibitor project, biochemical, fluorescence polarization | Glutathione S-transferase omega-1 (Homo sapiens), P78417 | inhibition, % at 5.96 µM | actives 1.1% (n = 300,000) | activity-based probe fluorescence polarization;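 active = inhibition above the campaign mean inhibition plus 3 SD, cut at about 35% in these data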;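 also: 0% = GSTO1-1 with DMSO and 100% = wells lacking GSTO1-1 enzyme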
Target sequence (P78417 whole entry, looked up): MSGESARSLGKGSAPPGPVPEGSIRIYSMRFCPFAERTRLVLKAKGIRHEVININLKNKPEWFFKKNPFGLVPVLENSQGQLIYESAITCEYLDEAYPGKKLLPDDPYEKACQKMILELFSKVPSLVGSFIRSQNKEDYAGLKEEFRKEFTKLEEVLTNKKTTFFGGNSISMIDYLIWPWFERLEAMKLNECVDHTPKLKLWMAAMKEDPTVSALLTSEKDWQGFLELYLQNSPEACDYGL
PME-1 primary: PME-1 inhibitors via competitive probe labeling, primary screen, biochemical, fluorescence polarization, FP-Rh probe, HTS | Protein phosphatase methylesterase 1 (Homo sapiens), Q9Y570 | recombinant PME-1 | inhibition, % at 5.9 µM | actives 0.53% (n = 320,000) | AID 2130, 2009;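 active = inhibition above the campaign mean of all compounds plus 3 SD, cut at about 26% in these data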;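 also: competitive labeling of PME-1 active site by serine hydrolase directed probe; 0% = PME-1 with DMSO and 100% = wells lacking PME-1 enzyme; inhibitors block probe labeling so polarization falls and inhibition rises; many of its hits are not listed in these tables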
LYPLA2 counter: LYPLA2 inhibitors, primary screen, counter-screen for PME1 inhibitor project, biochemical, fluorescence polarization, FP-Rh probe ABPP; recombinant LYPLA2; actives 0.38% (n = 320,000); inhibition, % at 5.9 µM; Acyl-protein thioesterase 2 (Homo sapiens), O95372;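 active = inhibition above the screen-wide mean plus 3 SD, limit set per campaign, cut at about 26% in these data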;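 also: 0% = LYPLA2 with DMSO and 100% = wells lacking LYPLA2 enzyme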
PAFAH1B2 inh: PAFAH1B2 enzyme inhibitors, primary screen, biochemical, fluorescence polarization, human | Platelet-activating factor acetylhydrolase IB subunit alpha2 (Homo sapiens), P68402 | actives 1.2% (n = 340,000) | inhibition, % at 3.39 µM | recombinant PAFAH1B2, FP-rhodamine activity probe | AID 492953, 2010;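 active = inhibition above the mean of all tested compounds plus 3 SD, cut at about 24% in these data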;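 also: 0% = enzyme with DMSO and 100% = wells lacking PAFAH1B2; many of its hits are not listed in these tables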
LYPLA1 counter: LYPLA1 inhibitors, primary screen, counter-screen for PME1 inhibitor project, biochemical, fluorescence polarization, FP-Rh probe ABPP; recombinant LYPLA1; inhibition, % at 5.9 µM; actives 0.16% (n = 320,000);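 active = inhibition above the mean of all tested compounds plus 3 SD, set per campaign, cut at about 14% in these data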;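 also: inhibitors block serine hydrolase probe labeling of LYPLA1 so polarization falls; 0% = enzyme with DMSO and 100% = wells lacking LYPLA1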
Numbers without * were called inactive; x = no result given. Not all compounds are listed, so the mix of outcomes need not match the whole.

SMILES	PAFAH1B3 FP inh	PAD4 inh	PREPL inh	GSTO1 counter	PME-1 primary	LYPLA2 counter	PAFAH1B2 inh	LYPLA1 counter
CCCc1ccc2oc(C(=O)N3CCN(c4cnccn4)CC3)c(C)c2c1	13	2	10	0	-3	8	-1	0
COc1ccc(CCC(=O)OCc2csc(CC(=O)Nc3ccc(C)cc3)n2)cc1OC	5	-1	1	x	x	x	4	x
Cc1ccc(-n2c(Cc3cccn3C)nnc2SCC(=O)NCc2ccc3c(c2)OCO3)cc1	7	1	13	2	-9	5	5	3
CCCCCCCCNC(=O)C(CCC(=O)OCc1ccccc1)NC(C)=O (stereo not drawn)	-2	-6	-22	7	1	5	7	2
O=C(CCC1CCCC1)NNC(=O)c1cc2ccccc2cc1O	8	-6	0	20	14	2	17	0
O=[N+]([O-])CC(=Nc1ccc(Cl)cc1)N/N=C\c1oc(O)c2ccccc12	9	-9	9	21	52*	5	4	2
CC(C)Cc1ccc(CN2CCCC(NC(=O)CCN3CCCO3)C2)cc1 (stereo not drawn)	6	-3	0	5	-2	0	3	0
CN(CC(=O)Nc1ccc(Cl)c(C(F)(F)F)c1)C(=O)c1ccc2c(c1)NC(=O)CS2	14	-4	30	x	-10	4	-4	-6
CCc1cccc(CC)c1-n1c(SCC(=O)N2CCCc3ccccc32)nc(O)cc1=O	9	-1	6	x	x	x	4	x
COc1ccc(/C=N/NC(=O)c2[nH]c3ccc(C)cc3c2-c2ccccc2)c(C(=O)O)c1OC	10	3	9	3	-3	-11	12	-6
CCOC(=O)N1CCN(C(=O)/C=C/c2ccc(C(C)(C)C)cc2)CC1	4	-4	26	2	1	-6	-1	-4
Cc1ccc(-n2c(Cc3cccn3C)nnc2SCC(=O)NC2CCCCC2)cc1	3	-2	18	-9	4	6	5	3
C/C(N)=C(/C#N)C(=O)COC(=O)CNS(=O)(=O)c1ccc(F)c(F)c1F	-5	2	18	5	-2	5	3	1
O=S(=O)(Nc1ccc(F)cc1)c1ccc(NS(=O)(=O)c2cccs2)cc1	7	0	-19	-1	-5	5	13	1
O=C(COC(=O)/C=C/c1ccccc1[N+](=O)[O-])NCc1ccco1	13	-2	4	x	x	x	5	x
Cc1ccc(OCC(=O)N2CCN(C(=O)c3cccs3)CC2)cc1	5	0	2	7	3	3	11	-1
O=S(=O)(NC1CCCC1)c1cccc(-c2nnc(-c3ccccc3)o2)c1	7	4	0	-4	3	-6	3	-6
CCN(CC)S(=O)(=O)c1csc(C(=O)OCC(=O)c2ccccc2)c1	1	-1	9	5	1	3	1	-4
N#Cc1c(-c2cccc(Br)c2)cc(-c2cccnc2)nc1N	11	-9	7	-2	-13	-22	0	-18
CCCCc1ccc(CC(=O)Nc2cc(S(=O)(=O)N3CCOCC3)ccc2O)cc1	6	-3	11	x	-3	9	5	0

Another view of some results above:
Structure: CN(CC(=O)Nc1ccc(Cl)c(C(F)(F)F)c1)C(=O)c1ccc2c(c1)NC(=O)CS2
- PAFAH1B3 FP inh = 14
- PAD4 inh = -4
- PREPL inh = 30
- GSTO1 counter = x
- PME-1 primary = -10
- LYPLA2 counter = 4
- PAFAH1B2 inh = -4
- LYPLA1 counter = -6
Structure: CCc1cccc(CC)c1-n1c(SCC(=O)N2CCCc3ccccc32)nc(O)cc1=O
- PAFAH1B3 FP inh = 9
- PAD4 inh = -1
- PREPL inh = 6
- GSTO1 counter = x
- PME-1 primary = x
- LYPLA2 counter = x
- PAFAH1B2 inh = 4
- LYPLA1 counter = x

(list continues)
SMILES	PAFAH1B3 FP inh	PAD4 inh	PREPL inh	GSTO1 counter	PME-1 primary	LYPLA2 counter	PAFAH1B2 inh	LYPLA1 counter
O=C(CNC(=O)c1nc[nH]c1C(=O)N1CCc2ccccc2C1)OCc1ccccc1	5	-4	8	0	4	0	-2	3
CCOc1ccc(CC(=O)Nc2sc(Cc3ccccc3)c(C)c2C(N)=O)cc1OCC	-6	-5	11	-7	-5	-1	4	-3
CC(C)CN(C(=O)COC(=O)c1ccc([N+](=O)[O-])s1)c1c(N)n(Cc2ccccc2)c(=O)[nH]c1=O	7	-14	22	33	5	3	17	0
Cc1ccc(S(=O)(=O)Nc2nc3ccccc3nc2N2CCN(c3ccccc3F)CC2)cc1	0	4	6	6	4	-2	3	-4
COC(=O)C1C(O)=C(C=Nc2cccc3ccccc23)C(=O)CC1(C)C (stereo not drawn)	4	3	10	4	3	4	4	0
CC(C)n1c(O)c(/C=C2\C=NN=C2c2ccccc2)sc1=S	4	-1	11	1	-16	-16	1	-11
CCOC(=O)C1CCN(C(=O)c2cccc(NC(=O)C(CC)CC)c2)CC1	10	1	3	0	-7	-4	1	-1
Cc1ccc(C(=O)/C=C/c2ccc3c(c2)OCO3)o1	9	-5	12	12	-3	6	-6	-2
COc1cccc(-n2c(C)c3c(OC)cccc(=O)c3c2C)c1	8	-1	10	32	9	2	3	5
CCc1ccc(NC(=O)C2CCCN(S(=O)(=O)c3ccc4c(c3)CCCN4C(C)=O)C2)cc1 (stereo not drawn)	3	2	19	-3	-4	0	1	-1
COc1ccc(C(CNC(=O)c2cccc(S(=O)(=O)Nc3cccc(C)c3)c2)N2CCOCC2)cc1 (stereo not drawn)	6	6	-1	5	0	-18	1	-3
O=C(COc1ccccc1F)Nc1cc(S(=O)(=O)Nc2cccc(Cl)c2)ccc1O	6	-5	-2	x	1	-12	9	-13
CCCCOc1ccc(CONS(=O)(=O)c2ccc(NC(C)=O)cc2)cc1Cl	-11	2	-9	-5	-33	-28	-3	-19
Cc1cccc(NS(=O)(=O)c2ccc(C(=O)NCC3(N4CCCCC4)CCCCC3)cc2)c1C	-2	-6	13	-5	9	-1	5	-1
Cc1ccc(S(=O)(=O)Nc2cccc(C(=O)N3CCN(c4ccccc4O)CC3)c2)cc1F	5	3	2	6	0	-5	-2	-2
CCOC(=O)NCc1ccc(S(=O)(=O)Nc2ccccc2C)cc1	-4	-4	-6	1	6	0	3	-3
C=CCNc1nc(C(=O)OCC(=O)c2ccc(OC)cc2OC)cs1	-1	-3	-7	9	-4	-4	4	0
CCOc1ccc(CONS(=O)(=O)c2ccc(NC(C)=O)cc2)cc1Cl	2	1	-6	13	-7	0	2	-6
O=C(CCC1CCCCC1)Nc1ccc(S(=O)(=O)Nc2nccs2)cc1	8	1	15	6	1	5	34*	1
Cc1c(C=O)c2cc(OCc3ccccc3)ccc2n1C	0	-3	15	2	0	5	5	-2
O=C(COc1ccc(-c2ccccc2)cc1)N1CCN(C(=O)c2cccs2)CC1	-3	-5	2	7	4	6	-1	9
Cc1ccc(NS(=O)(=O)c2cccc(C(=O)N(C)Cc3cccs3)c2)cc1	-3	-2	-5	6	7	-2	6	1
Cc1ccc(-n2c(Cc3cccn3C)nnc2SCC(=O)N2CCN(c3ccccc3)CC2)cc1	2	0	34	5	-2	8	3	0
Cc1nn(-c2ccccc2)c(C)c1NC(=O)COC(=O)Cc1ccccc1F	11	1	8	5	-2	12	2	3
Cc1ccccc1-n1c(SCc2cccc(F)c2)nc2[nH]ncc2c1=O	9	0	2	-1	6	2	6	-3
O=C(COc1ccc(-c2ccccc2)cc1)N1CCN(C(=O)c2cccnc2)CC1	1	-1	11	3	-1	5	5	-1
CCOc1ccc(NS(=O)(=O)c2ccc(C(=O)N3CCCCCC3)cc2)cc1	-1	-5	-23	10	-3	8	5	2
Cn1nc(-c2ccccc2)c(CSc2ccccc2)c1Cl	1	4	7	-3	-1	8	0	3
Cc1nnc(-c2ccco2)c2cn(-c3cccc(Br)c3)nc12	1	-5	-25	-16	1	-7	7	-15
O=C(COC(=O)Cc1ccsc1)Nc1ccc(Br)cc1F	8	0	-3	x	-6	1	-6	-2
CC(C)CCNC(=O)c1ccc(CSCc2cccc(F)c2)o1	0	-7	18	-1	1	8	12	2
CC1=C(C(=O)OCC2CCCO2)C(c2cccc(C(F)(F)F)c2)C2=C(CC(c3ccco3)CC2=O)N1 (stereo not drawn)	-1	1	11	-6	-3	-1	7	-3
FC(F)(F)c1cc(-c2ccc(Cl)cc2)nc(NCc2cccnc2)n1	-3	-1	-10	-1	0	-6	4	-5
CC1CCCN(C(=O)COc2ccc(-c3ccccc3)cc2)C1 (stereo not drawn)	2	-2	6	1	-7	-7	2	-2
Cc1ccccc1-n1nnnc1SCC(=O)Nc1ccc(S(=O)(=O)N2CCCC2)cc1	3	-2	11	2	3	-7	6	-9
Cc1ccc(SCCNC(=O)c2ccc(C)c(S(=O)(=O)Nc3ccccc3C)c2)cc1	7	-7	-10	-16	-17	-35	40*	-12
CC(=O)NCCc1ccc(S(=O)(=O)Nc2ccc(NC(=O)c3ccc(F)cc3)cc2)cc1	1	2	9	6	0	-7	-3	-3
Cc1ccc(NS(=O)(=O)c2ccc(NC(=O)[C@@H]3CCCC[C@@H]3C(=O)O)cc2)c(C)c1	-4	-1	-10	6	2	-3	-4	-2
Cc1ccc(NS(=O)(=O)c2ccc(CCC(=O)N3CCOCC3)cc2)cc1	-7	2	0	-1	6	2	25*	3
CCCCNC(=O)c1c[nH]c2ccc(S(=O)(=O)Nc3ccc(OCC)cc3)cc2c1=O	-12	-5	-1	11	-6	-11	0	-7
Cc1ccc(NS(=O)(=O)c2cccc(C(=O)N3CCCCC3)c2)cc1	7	-2	8	x	x	x	9	x
COc1ccc(/C=N/Nc2nc(-c3ccc(Cl)cc3)cc(C(F)(F)F)n2)c(OC)c1	3	-2	10	1	-4	4	-3	0
Cc1nc(CSc2nc3[nH]ncc3c(=O)n2-c2ccccc2)cs1	-5	-3	11	-3	-1	-2	7	-2
CC1CCCN(C(=S)SCC(=O)c2cc(Br)cc(Br)c2O)C1 (stereo not drawn)	-14	-4	-5	-75	-58	-44	-3	-25
COc1ccccc1/C=C/C(=O)OCC(=O)NC1CCCCCCC1	1	0	4	x	x	x	4	x
O=C(CCN1CCCCC1=O)NC1CCCN(Cc2ccc(Cl)cc2)C1 (stereo not drawn)	8	-7	5	8	5	1	0	-1
COCCn1c(SCC(=O)NNC(=O)c2ccc(OC)c(OC)c2)nc2ccccc2c1=O	10	-5	-1	1	-3	0	1	0
CC(C)NC(=O)CSc1nc2ccccc2n1-c1ccccc1	-2	1	8	10	-4	-4	1	-4
CCOc1ccc(NS(=O)(=O)c2ccc(NS(C)(=O)=O)cc2)cc1	2	0	-16	9	-3	-4	1	-2
O=C(/C=C/c1ccccc1Cl)NCCc1ccc(F)cc1	0	-3	-13	9	-6	3	4	-4
O=C(CN(Cc1ccccc1)S(=O)(=O)c1ccc2c(c1)OCCO2)N/N=C/c1cccc(Br)c1	-30	-5	-45	-7	-30	-40	-10	-17
COc1cc(OC)cc(-c2cc(N)n(S(=O)(=O)c3cccc4nsnc34)n2)c1	5	3	13	6	5	-5	2	-10
Cc1ccc(NS(=O)(=O)c2ccc(CCC(=O)NCc3cccnc3)cc2)cc1	5	-6	16	17	8	-5	11	0
CC(=O)N(CCC(c1ccccc1)c1ccco1)Cc1cccs1 (stereo not drawn)	-1	1	4	0	5	1	3	0
O=C(c1cccc(S(=O)(=O)NCc2ccccc2)c1)N1CCN(c2cccc(C(F)(F)F)c2)CC1	7	3	21	-5	-1	-2	0	-4
O=C(COC(=O)c1cc(S(=O)(=O)Nc2ccccc2Cl)ccc1O)Nc1ccc(F)c(F)c1F	2	-1	2	x	x	x	6	x
